Compound activity (PubChem BioAssay)
GIRK2 activ – GIRK2 channel activation. AID 1259325. HEK293-GIRK2 thallium flux, Thallos fluorescence. P48051. calls only for hits at 25 µM. 63,000 tested, 0.05% active;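 active means among the strongest 0.2% of first-round signals and kept after retests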;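 further: first round at about 10 µM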
Target sequence (P48051 whole entry, looked up): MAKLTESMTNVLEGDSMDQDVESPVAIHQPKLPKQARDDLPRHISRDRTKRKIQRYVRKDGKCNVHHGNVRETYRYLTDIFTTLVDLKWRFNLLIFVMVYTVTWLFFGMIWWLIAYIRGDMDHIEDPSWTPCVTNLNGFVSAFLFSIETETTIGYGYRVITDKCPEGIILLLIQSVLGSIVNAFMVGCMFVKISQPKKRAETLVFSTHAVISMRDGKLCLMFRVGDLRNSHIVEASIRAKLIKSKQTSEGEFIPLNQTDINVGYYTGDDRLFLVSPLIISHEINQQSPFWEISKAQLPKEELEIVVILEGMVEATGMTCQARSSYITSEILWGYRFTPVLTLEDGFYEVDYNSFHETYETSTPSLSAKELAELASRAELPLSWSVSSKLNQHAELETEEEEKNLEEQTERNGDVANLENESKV
Calls only; i = inactive. These rows are one share of the data; rates above refer to the full screens.

GIRK2 activ | structure
i | CC1=CC(=O)[C@@]2(C)C1=CC(=O)[C@]1(C)C2[C@@H](O)[C@@H]2OC(=O)[C@H]1[C@H]2C (stereo not given in full)
i | COc1cccc(CNC(=O)CSc2nc3c(sc(=S)n3-c3ccccc3)c(=O)[nH]2)c1
i | CCCCn1c(=O)[nH]c2c(C(=O)N3CCOCC3)snc2c1=O
i | CCCn1c(C(=O)Nc2cccnc2)cc2c(=O)n(C)c(=O)n(C)c21
i | COc1ccc(C(=O)NCC(c2cccn2C)N2CCOCC2)cc1 (stereo not given)
i | CCOC(=O)CNC(=O)Cn1c(-c2ccccn2)nc2ccccc21
i | COC(=O)c1ccc(NC(=O)CN2CCC(c3nc(-c4ccc(C)cc4)no3)CC2)cc1
i | O=[N+]([O-])c1ccc(Cl)c(S(=O)(=O)NCCOc2cccc(C(F)(F)F)c2)c1
i | CCc1ccc(NC(=O)c2cn(Cc3ccc(NC(=O)c4ccc(F)cc4)cc3)cn2)cc1
i | O=C(COc1ccc2c(c1)C(=O)CC2)Nc1ccc2c(c1)OCO2
i | O=c1ccn(Cc2nnc(SCc3nc4ccccc4[nH]3)o2)c(=O)[nH]1
i | COc1ccc(C(C)NC(=O)C2CCN(S(=O)(=O)N3CCCC3)CC2)cc1 (stereo not given)
i | COC(=O)c1sc(-n2cnc3cc(OC)c(OC)cc32)cc1OCc1ccccc1C(F)(F)F
i | Cc1ccccc1CS(=O)(=O)Cc1ccc(C(=O)NCc2ccc(F)cc2F)o1
i | Cc1ccc2c(c1)C(=O)C1(O)CCN(c3ccccc3)C1=N2 (stereo not given)
i | COc1ncc(C(=O)NC(C)CCc2ccccc2)cn1 (stereo not given)
i | Cc1ccc(NC(=O)Cn2nc3c(N4CC(C)CC(C)C4)nccn3c2=O)c(Cl)c1 (stereo not given)
i | CCOc1ccc(NC(=O)Nc2c(C)nc(N3CCOCC3)nc2C)cc1
i | CCOc1ccc(C(=O)Nc2cnoc2)cc1OCC
i | Cc1cc(OCC(=O)Nc2cccc(Cl)c2C)nc(N2CCCCC2)n1
i | Cc1ccc(NC(=O)C(=O)NCC(C)(O)c2ccco2)cc1Cl (stereo not given)
i | COc1ccc(CCC(=O)Nc2cc(C)ns2)cc1
i | COc1ccccc1CNC(=O)Cn1nc2ccc(-c3ccc(C)c(C)c3)nn2c1=O
i | CN(C)CCN(C(=O)c1ccc(F)cc1)c1nc2c(S(C)(=O)=O)cccc2s1
i | O=C(CC1=CCc2ccc(F)cc21)NCc1ccccc1
i | Cn1cnc([N+](=O)[O-])c1Sc1ncnc2nc[nH]c12
i | COc1ccc(NC(=O)C2CCCN(c3ccc(-c4nc(C)no4)cn3)C2)c(C)c1 (stereo not given)
i | O=C(CSc1ccc(N2CCN(c3cccc(C(F)(F)F)c3)CC2)nn1)N1CCCCC1
i | Cc1cccc(NC(=O)CN2N=NC3C(=O)N(c4ccc(C(C)C)cc4)C(=O)C32)c1C (stereo not given)
i | Cc1ccc2nc(N(CCN3CCOCC3)C(=O)c3ccc(C#N)cc3)sc2c1

3 entries from above, with tabs:
structure	GIRK2 activ
COc1ccc(C(=O)NCC(c2cccn2C)N2CCOCC2)cc1 (stereo not given)	i
CCOC(=O)CNC(=O)Cn1c(-c2ccccn2)nc2ccccc21	i
COC(=O)c1ccc(NC(=O)CN2CCC(c3nc(-c4ccc(C)cc4)no3)CC2)cc1	i

Other results.
GIRK2 activ | structure
i | CCc1ccccc1NC(=O)c1ccc(S(=O)(=O)N2CC(C)CC(C)C2)cc1 (stereo not given)
i | NC(=O)c1ccccc1OCC#CCNC(=O)COc1ccccc1F
i | O=C(CSCc1ccccc1)NCc1nn(C2CCCC2)c(=O)c2ccccc12
i | N#Cc1nc(-c2ccc(S(=O)(=O)N3CCOCC3)cc2)oc1N1CCCC1
i | CCOC(=O)Cn1c(=O)c2c(nc3n(C(C)CC)c(C)c(C)n23)n(C)c1=O (stereo not given)
i | Cc1nc(-c2cccc(NC(=O)C3COCC(=O)N3Cc3cccs3)c2)cs1 (stereo not given)
i | COc1ccccc1OCC(=O)NCC1CCN(c2ccccn2)CC1
i | O=C(NCc1nc(-c2ccccc2)no1)c1cccc(-n2cnnn2)c1
i | Cc1nnc(NC(=O)c2ccc(S(=O)(=O)N(C)CC(=O)N3CCOCC3)o2)s1
i | CCOC(=O)N1CCc2c(sc(NC(=O)CCCS(=O)(=O)c3ccc(OC)cc3)c2C(N)=O)C1
i | CN(CC(=O)N1CCn2c1nc1ccccc12)c1nc2c(F)cccc2s1
i | COc1ccc(C(=O)N2CCOCC2CN(C)C)cc1OC (stereo not given)
i | CCOc1cn(C)c(C(=O)Nc2ccc(C(N)=O)cc2)cc1=O
i | COc1ccc(CN2COc3ccc4c(c3C2)O/C(=C\c2cc(OC)c(OC)c(OC)c2)C4=O)cc1
i | COCCn1c(C)cc(C(=O)CSc2nnc(C)s2)c1C
i | CNC(=O)C1CCCN(c2nc3c(-c4ccccc4C)csc3c(=O)[nH]2)C1 (stereo not given)
i | Cn1ccnc1SCC1CCN(S(=O)(=O)c2cccnc2)CC1
i | O=C(CN1CC(c2nc(-c3cccnc3)no2)C1)NCC1CCCO1 (stereo not given)
i | Cc1ccnc(NS(=O)(=O)c2ccc(NC(=O)c3cc(-c4ccccc4)on3)cc2)n1
i | CCc1ccc(N2C(=O)C3N=NN(CC(=O)Nc4ccc(Br)cc4)C3C2=O)cc1 (stereo not given)
i | COC(=O)c1sc(-c2ccccc2)cc1NC(=O)c1cc(C)no1
i | Cc1cc(C)nc(NS(=O)(=O)c2ccc(NC3=CC(=O)N(C)C3=O)cc2)n1
i | COc1ccc(Cc2nnc(C3CCN(S(=O)(=O)c4ccccc4)CC3)s2)cc1
i | CCOc1ccccc1NC(=O)c1cc2c(=O)n(C)c(=O)n(C)c2n1Cc1ccccc1
i | Cn1ccnc1SCC1CCN(C(=O)c2cc3ccccc3oc2=O)CC1
i | COC(=O)c1ccc(NC(=O)Cn2cccc(S(=O)(=O)N3CCOCC3)c2=O)cc1
i | O=C(Cn1cccn1)NCC(Cc1cccc(F)c1)N1CCNC1=O (stereo not given)
i | COc1ccc(-c2ccc(=O)n(CCNS(=O)(=O)c3cc(OC)ccc3OC)n2)cc1
i | O=C(Nc1cnc(N2CCN(c3ccccn3)CC2)nc1)c1ccccc1C(F)(F)F
i | CCc1noc(-c2ccc(SCC(=O)NCc3cccc(Br)c3)nc2)n1
i | CCc1cccc(NC(=O)Nc2ccc(Oc3ccc4nc(NC(=O)OC)[nH]c4c3)cc2)c1
i | Cc1ccccc1Cn1nnc2c(=O)n(Cc3nc(-c4cccc(C(F)(F)F)c4)no3)cnc21
i | O=C(Nc1nc2c(s1)COCC2)c1cnccn1
i | COc1ccc(Cn2c(=O)c3sccc3n(Cc3nc(-c4ccccc4C)no3)c2=O)cc1
i | COc1cccc(-c2nc(Cn3nnc(C(=O)NCc4ccc(Cl)cc4)c3N)c(C)o2)c1OC
i | COc1cc(C(=O)NCc2n[nH]c(=O)c3ccccc23)cc(OC)c1OC
i | COCc1ccc(C(=O)Nc2cc(C)nc3c(OC)cccc23)o1
i | CCc1ccccc1NC(=O)N1CCN(c2cc(C)ncn2)CC1
i | O=C(/C=C/c1ccccc1Cl)NC1CC(=O)N(C2CC2)C1 (stereo not given)
i | Cc1cc(F)ccc1NC(=O)c1nc(-c2cn(-c3ccc(F)cc3)nn2)no1
i | COc1cc(C)c(C(=O)O[C@@H]2[C@H](O)[C@@H](CO)O[C@H]2n2ccc(=O)[nH]c2=O)c(OC)c1
i | Cc1cc(CNS(=O)(=O)c2ccccc2Cl)c(C)o1
i | CC(OC(=O)c1c2c(nc3ccccc13)CCCC2)C(=O)c1ccccc1 (stereo not given)
i | COc1ccc2c(c1)c(CC(=O)Oc1ccc(-c3cc(=S)ss3)cc1)c(C)n2C(=O)c1ccc(Cl)cc1
i | Cc1cccc(-c2csc3c(=O)[nH]c(N4CCC(C(=O)NCc5cccs5)CC4)nc23)c1
i | O=C(CNC(=O)c1ccc(=O)[nH]c1)NCCc1ccccc1
i | COc1cc(OC)cc(-c2nc(-c3nnn(Cc4ccc(F)cc4)c3C)no2)c1
i | CCOc1ccc(-c2cc3c(=O)n(CC(=O)Nc4cc(F)ccc4F)ccn3n2)cc1
i | O=C(c1ccc(F)c(F)c1)N1CCN(Cc2nc3ccccc3n2Cc2ccccc2)CC1
i | O=S(=O)(Cc1ccc(C(F)(F)F)cc1)NCCc1ccoc1
i | COc1cccc(C(=O)N2CCC(Cn3ccnc3-c3ccccc3)CC2)c1
i | COc1ccccc1OCC#CCNC(=O)c1cccc(C(F)(F)F)c1
i | COc1ccc(NC(=O)c2ccc(CNS(=O)(=O)c3cccc(OC)c3)cc2)cc1
i | COc1cccc(NC(=O)C(=O)c2cn(CC(=O)N3CCOCC3)c3ccccc23)c1
i | O=C(c1ccccc1Br)N1CCC(Cn2ccnc2)CC1
i | Cn1c(=O)n(CCN2CCCCC2)c(=O)c2c1nc1n2CCN1c1ccccc1
i | Cc1nnsc1C(=O)NC(C)Cc1ccco1 (stereo not given)
i | Cn1ccnc1SCC1CCN(C(=O)c2ccsc2)CC1
i | CCOC(=O)c1c(C)n(C)c2ccc(OCC(O)CNC)cc12 (stereo not given)
i | Cc1ccc(S(=O)(=O)c2c(C)nn(C(C)(C)C)c2OC(=O)COc2ccccc2)cc1

New compounds follow:
GIRK2 activ | structure
i | CCOC(=O)c1oc2cc(OCC(=O)OC(C)(C)C)ccc2c(=O)c1-c1ccc(OC)cc1
i | CCOc1ccc(C(C)C)cc1S(=O)(=O)NCCCn1ncccc1=O
i | Cc1ccnc(Nc2cc(N3CCN(C(=O)CCc4ccccc4)CC3)nc(C)n2)c1
i | CCCS(=O)(=O)N1CCc2ccc(NC(=O)c3cnn(-c4ccccc4)n3)cc2C1
i | CCc1ccc(N2CCCn3c2nc2c3c(=O)[nH]c(=O)n2C)cc1
i | CN1CCC(CNS(=O)(=O)c2c(F)cccc2F)CC1
i | O=C(Nc1ccc(Cl)c2ncsc12)c1cccc(C(F)(F)F)c1
i | C=C(C)COc1ccc(-c2nc(N)ncc2Oc2ccccc2Br)c(O)c1
i | CCOc1ccc(Cl)cc1S(=O)(=O)N1CC(C)OC(C)C1 (stereo not given)
i | O=C(c1cc2ccccc2o1)N1CCC(CSC2=NCCS2)CC1
i | Cc1oc(-c2ccccc2)cc1C(=O)N(C)c1ccccc1
i | COc1ccccc1C(=O)N1CCN(Cc2nc3ccccc3[nH]2)CC1
i | CCCn1c(C(=O)N2CC(C)CC(C)C2)cc2c(=O)n(C)c(=O)n(C)c21 (stereo not given)
i | COCCNC(=O)NCC(O)(c1ccccc1)C1CC1 (stereo not given)
i | O=C(N1CCN(CC(O)c2cccs2)CC1)C1(c2ccc(Cl)cc2)CCCC1 (stereo not given)
i | O=C(Nc1ccc(Cl)c2ncsc12)c1ccco1
i | CC(C)c1nnc(SCC(=O)NCC2CCCO2)c2c1cnn2-c1ccc(F)cc1 (stereo not given)
i | COc1cc(OC)c2c(O)c3c(c(-c4c5c(c(O)c6c(OC)cc(OC)cc46)CO[C@@H](C)[C@H]5O)c2c1)[C@H](O)[C@H](C)OC3
i | Cc1csc(NC(=O)c2coc(NC(=O)C3CC3)n2)n1
i | CC(C)Nc1c([N+](=O)[O-])c(=O)n(-c2ccccc2)c2ccccc12
i | CC(Cc1ccco1)NC(=O)CCS(=O)(=O)c1ccccc1 (stereo not given)
i | COc1cccc(C2c3c(oc4ccc(F)cc4c3=O)C(=O)N2c2cc(C)on2)c1 (stereo not given)
i | CN(C)S(=O)(=O)c1ccc(-c2nc(C#N)c(NCc3ccc4c(c3)OCO4)o2)cc1
i | O=C(NCCOc1ccc(-c2ccc(F)cc2)nn1)C1(c2cccs2)CCCC1
i | COC(=O)c1cccc(NC(=O)c2c(S(=O)(=O)Nc3ccc(C)cc3)n[nH]c2C)c1
i | Cc1ccc(NC(=O)CSc2ccc(F)cc2)cc1N1CCCC1=O
i | O=C(NCCOc1cccc2cccnc12)c1ccc[nH]c1=O
i | O=S(=O)(NCC(O)Cc1ccccc1)c1ccc(N2CCCCS2(=O)=O)cc1 (stereo not given)
i | COC1(CNC(=O)Nc2cccs2)CCSC1 (stereo not given)
i | COc1ccc(C(=O)Nc2ccc3c(c2)CCC(=O)N3CC(C)C)c(OC)c1OC

An excerpt from above in order of SMILES length, high to low:
GIRK2 activ | structure
i | COc1ccc(C(=O)Nc2ccc3c(c2)CCC(=O)N3CC(C)C)c(OC)c1OC
i | CN1CCC(CNS(=O)(=O)c2c(F)cccc2F)CC1
i | COC1(CNC(=O)Nc2cccs2)CCSC1 (stereo not given)

(cont.)
GIRK2 activ | structure
i | CCOCCN1N=C(c2ccccc2)Cn2c1nc1c2c(=O)n(CCOCC)c(=O)n1C
i | Cc1ccc(N2C(=O)CC(C3CCCC=C3N3CCOCC3)C2=O)c(C)c1 (stereo not given)
i | COc1ccccc1C1(CNC(=O)C2CCN(S(C)(=O)=O)CC2)CCOCC1
i | CCn1c(=O)c2c(nc3n(CC)c(-c4ccccc4)cn23)n(C)c1=O

Entries shown so far containing a CF3 group, in the order listed:
GIRK2 activ | structure
i | O=[N+]([O-])c1ccc(Cl)c(S(=O)(=O)NCCOc2cccc(C(F)(F)F)c2)c1
i | COC(=O)c1sc(-n2cnc3cc(OC)c(OC)cc32)cc1OCc1ccccc1C(F)(F)F
i | O=C(CSc1ccc(N2CCN(c3cccc(C(F)(F)F)c3)CC2)nn1)N1CCCCC1
i | O=C(Nc1cnc(N2CCN(c3ccccn3)CC2)nc1)c1ccccc1C(F)(F)F
i | Cc1ccccc1Cn1nnc2c(=O)n(Cc3nc(-c4cccc(C(F)(F)F)c4)no3)cnc21
i | O=S(=O)(Cc1ccc(C(F)(F)F)cc1)NCCc1ccoc1
i | COc1ccccc1OCC#CCNC(=O)c1cccc(C(F)(F)F)c1
i | O=C(Nc1ccc(Cl)c2ncsc12)c1cccc(C(F)(F)F)c1
